NPYLR7 ag: activates Aedes aegypti NPYLR7 receptor; activation, % at 10 µM; AID 1259423; HEK293T NPYLR7/Galpha15, GCaMP6s calcium fluorescence; 270,000 tested, 0.15% active; in the data active means activation above about 40%;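 further: 0% = vehicle and 100% = reference agonist at the receptor; some compounds past the cut are filed as inactive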
NPYLR7 ag max-min: further read-out of NPYLR7 ag, marked with its call; activation, %; measured here: Max-Min RFU normalised activation; some inactives read as strong as hits;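 span of the calcium signal over five minutes; 0% = vehicle and 100% = native peptide agonist; compound fluorescence can raise it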
Numbers without * were called inactive.

SMILES | NPYLR7 ag | NPYLR7 ag max-min
COc1cc(C(=O)N2CCc3c(nc[nH]c3=O)C2)c2ccccc2n1 | 2 | 2
CNc1cc(-c2ccc3cn[nH]c3c2)c2cc[nH]c2n1 | 3 | -6
Cc1cnc(C)c(N2CCN(Cc3nc(-c4ccc(F)cc4)oc3C)CC2)n1 | -9 | -10
Cc1cccc(C(C(=O)NCc2nc(-c3cccnc3)no2)N(C)C)c1 (stereo not given) | 18 | 13
O=C(CSc1ccc(-c2ccc3c(c2)OCO3)nn1)NC1CCCC1 | -2 | -1
CCCCCNC(=O)c1cc(-c2ccccc2Cl)nn1-c1cccc([N+](=O)[O-])c1 | 9 | 17
CCCCN(C)C(=O)c1sc(=O)n(CC(=O)c2ccccc2F)c1C | 3 | -2
CN(Cc1ccccc1O)C(=O)C1CCCN(C(=O)N2CCCC2)C1 (stereo not given) | -1 | -2
CCOC(=O)C1(CCOc2ccccc2)CCCN(C(=O)c2csc(C)n2)C1 (stereo not given) | 3 | -1
CCCCCCCCCCC1C[C@H]2CC(O)O[C@H]2O1 (stereo not given in full) | 1 | 1
COC(=O)c1ccc(Nc2ccc(OCC3CCCO3)cc2)nn1 (stereo not given) | 0 | 5
CCOC(=O)c1ccccc1OCc1cc(C2Nc3ccccc3C(=O)N2c2ccccc2)ccc1OC (stereo not given) | -17 | -12
NC1=NC(c2ccc(-c3ccccc3)cc2)n2c(nc3ccccc32)N1 (stereo not given) | -5 | -7
COc1ccc2nc(NC(=O)C=Cc3ccco3)sc2c1 | 12 | 3
O=c1cc(NCC(O)c2ccc(F)cc2)cnn1Cc1ccccc1 (stereo not given) | 10 | 7
COc1ccc(-c2nnc3ccc(SCC(=O)Nc4c(C)cc(C)cc4C)nn23)cc1OC | 5 | 13
NC(=S)c1cc2c(ccc3ccccc32)oc1=O | 6 | 5
CC(C)CCN1CCN(Cc2nc(-c3ccc(F)cc3)cs2)CC1CCO (stereo not given) | 14 | 3
Cn1c(CC(=O)NNC(=O)c2ccc3c(c2)CCC3)nc2ccccc21 | 1 | 0
O=C(Cc1ccc(Cl)cc1)N1CCC(n2c(-c3ccccc3)nc3ccc(F)cc32)CC1 | -11 | -11
O=C(C=Cc1ccc(N2CCCC2=O)cc1)Nc1ccc2c(c1)OCCO2 | -11 | -12
Cc1ccc(Cc2nsc(N3CCC(CNC(=O)c4cc(Cl)cc(Cl)c4)CC3)n2)cc1 | -1 | 11
CSc1ccc2cc(CN3CC[C@H](O)C3)c(=O)[nH]c2c1 | -4 | -4
Cc1cccc(NC(=S)NNC(=O)c2sccc2C)c1 | 6 | 6
O=C(NCc1ccncc1)c1nnc(N2CCC(Cc3ccccc3)CC2)c2ccccc12 | 6 | 6
CCn1cc(S(=O)(=O)NC2CCC(c3ncno3)CC2)cn1 (stereo not given) | 8 | -2
C=C1C(=O)O[C@H]2C3=C(C)CCC[C@]3(C)C(=O)C[C@@H]12 | -7 | -17
CC1CN(C(=O)C(C)OC(=O)Cc2c[nH]c3ccccc23)CC(C)O1 (stereo not given) | 6 | 1
Clc1ccc(C2=Nc3ncnn3C(c3ccc(Cl)cc3)C2)cc1 (stereo not given) | 8 | 6
C=CCc1cccc2cc(C(=O)Nc3cccc(F)c3)c(=O)oc12 | 4 | 3
CC1CCN(Cc2nc3ccccc3c(=O)n2Cc2ccco2)CC1 | 1 | -1
O=[N+]([O-])c1ccc(Cl)c(S(=O)(=O)Nc2ccc(F)cc2Cl)c1 | -1 | -8
CCc1c(C)nc(SCc2ccccc2C)c(C#N)c1C | 7 | 5
CC1CC(C)CN(C(c2ccc(F)cc2)C2Sc3ncnn3C2=O)C1 (stereo not given) | 2 | 2
COc1ccc(C(=O)NCCOc2ccc3nnc(-c4ccc(OC)c(OC)c4)n3n2)cc1 | -7 | -9
CC(C)c1nccn1Cc1cc(C(=O)N(C)Cc2ccccc2Cl)n[nH]1 | 16 | 6
CCC1CCCCN1Cc1c(O)ccc2c(=O)c(-c3ccc(Cl)cc3)coc12 (stereo not given) | 6 | 12
CCN(Cn1nc(-c2ccco2)n(CC)c1=S)C1CCS(=O)(=O)C1 (stereo not given) | 1 | -1
CN(C)CCN(Cc1cccc(F)c1)C(=O)c1ncncc1Cl | 5 | 3
CCc1nc2ccc(C(=O)N(C)CCN(C)C)cn2c1N(C)C(=O)Cc1ccccc1 | -2 | -7
COc1ccc(OC)c(C2CCCN2CC(=O)NC(C)c2ccccc2C)c1 (stereo not given) | -4 | -3
Cc1nc(-c2ncccn2)sc1C(=O)NC(C)CN1CCCC(C)C1 (stereo not given) | 0 | -1
CCOc1ccc(NC(=O)c2c(NC(=O)c3ccccc3F)sc3c2CCC(C)C3)cc1 (stereo not given) | 1 | -1
O=C(c1ccc(CSc2nc(Cl)cc(N3CCCCC3)n2)cc1)N1CCN(c2cccc(Cl)c2)CC1 | 24 | 20
COc1ccc(Cl)cc1NC(=O)Cn1ncn2nc(-c3ccccc3)cc2c1=O | -11 | -18
COc1ccc(Nc2nc(N3CCN(C)CC3)nc3c2cnn3-c2ccccc2)cc1 | 2 | -1
O=C(Nc1ccc2c(c1)CN(C(=O)CN1CCOC1=O)CC2)c1ccncc1 | 16 | 8
Cc1nc2c([nH]1)CCN(C(=O)c1ccc(NC(=O)c3ccccc3-c3ccccc3)cc1)c1ccccc1-2 | -7 | -13
Cc1cc(CNC(=O)CCC(=O)c2cccs2)cc(C)c1O | 2 | 0
CC(=O)c1cccc(NC(=O)CSc2nc(=O)n(N3CCN(C)CC3)c3c2CCCC3)c1 | -3 | -8
CCCCN1C(=O)c2ccccc2NC12CCN(C(=O)C1(c3ccccc3)CC1)CC2 | -1 | 10
COc1ccc(N2CCN(c3cc(C(=O)Nc4cc(OC)c(OC)c(OC)c4)ncn3)CC2)cc1OC | -2 | -5
O=C(c1ccc2c(c1)OCO2)C1CCCN(Cc2cccn2-c2cccnc2)C1 (stereo not given) | 13 | 0
O=C(Nc1ccc(-c2ccn[nH]2)cc1)C1CCCN(Cc2c(F)ccc(F)c2F)C1 (stereo not given) | 10 | 0
O=C(c1ccc2c(c1)OCCO2)N1CCOC(Cc2ccccc2)C1 (stereo not given) | 2 | -2
CS(=O)(=O)Nc1cccc(C#CCNC(=O)C2CCC2)c1 | 2 | -2
C(=NC1=NN(c2ccccc2)CC1)c1ccccc1 | 1 | 58
CC(C)(C)CN1CCNCC1CCO (stereo not given) | 1 | -2
CCCCN(CC(=O)N(CCc1ccc(OC)c(OC)c1)Cc1cccs1)C(=O)C(C)(C)CCl | -3 | -7
O=S(=O)(c1ccc(Cl)c(Cl)c1)N1CCN(Cc2cc(-c3ccccc3)no2)CC1 | 2 | 6
Next part.
SMILES | NPYLR7 ag | NPYLR7 ag max-min
O=C(NCc1nnnn1-c1ccc(F)cc1)Nc1cccs1 | 3 | 1
CCc1nc2ccc(C(=O)N3CCN(C)CC3)cn2c1N(CCC(C)C)CCN(C)C | -2 | -8
CCc1nc(N2CCN(S(=O)(=O)c3ccc(Cl)c([N+](=O)[O-])c3)CC2)c2c3c(sc2n1)CCCC3 | -10 | -4
N#Cc1ccsc1NC(=O)CSc1nc2ccccc2c(=O)n1CCCO | 14 | 11
C=CCN(C(=O)Cn1c(=O)c2c(ncn2C)n(C)c1=O)c1nc2c(s1)CCCC2 | 1 | 6
CC(=O)Nc1ccc(S(=O)(=O)Oc2ccc(Cl)cc2CN(CCN(C)C)C(=O)C(C)C)cc1 | 16 | 3
CC(C(=O)Nc1ccccc1F)N1CCC2CCCCC2C1 (stereo not given) | 5 | 0
O=C(C1CCN(c2nnc(N3CCCC3=O)s2)CC1)N1CCN(C2CCCCC2)CC1 | 1 | -1
COc1ccc(N2CCN(C3CCCN(C(=O)c4cc(N)n[nH]4)C3)CC2)cc1 (stereo not given) | 10 | 8
COCCN(CC(=O)N1CCc2sccc2C1COc1ccccc1F)S(=O)(=O)c1ccc(OC)cc1 (stereo not given) | 13 | 23
Cc1ccnc(C(N)C2CC2)c1 (stereo not given) | 4 | 2
Cc1cc(CNc2cnccn2)c2[nH]c(-c3ccccc3)c(C)c2c1 | 0 | -4
CC(C(=O)O)N1C(=O)C2C3CCC(C3)C2C1=O (stereo not given) | 0 | -3
Cc1ccc(Cn2c(=O)c3c(nc4n(CCN5CCOCC5)c(C)c(C)n34)n(C)c2=O)cc1 | 9 | 3
COCC1(C(=O)NC(C)C(=O)Nc2cc(F)ccc2C)CCC1 (stereo not given) | -1 | 0
CCN(CC)CCCNC(=O)c1nnc2n(c1=O)CCN2c1ccc(OC)cc1 | -2 | -3
CCCC(CCC)C(=O)Nc1c(C)nc2sc(C)c(C)n2c1=O | 7 | 0
CNC(=S)N(Cc1ccc(OC)cc1)C1CC(=O)N(c2ccc(F)cc2)C1=O (stereo not given) | -2 | -3
COC(=O)c1ccc(CN(Cc2ccc(C)o2)C2CC2)o1 | -5 | 3
CCOC(=O)c1nn(-c2ccc(C)cc2)c(=O)cc1NCc1ccc(C)cc1 | 3 | -1
O=C(CN1C(=O)CCC1=O)Nc1nnc(-c2cc(Cl)ccc2Cl)o1 | 5 | 2
COc1ccc(CN(Cc2ccc(F)cc2)C(=O)CC(C)C)cc1OCc1nc(CO)cs1 | 7 | 12
Cc1c(C(=O)NCc2ccccc2C(F)(F)F)sc(=O)n1CCc1ccccc1 | -6 | -7
O=C(CCn1cnnc1)NCc1cccnc1Oc1ccccc1F | 0 | -1
CC(C)Cc1cc(C(=O)N(C)CC2Cc3ccccc3O2)no1 (stereo not given) | 2 | 0
COc1cc(C)c(S(=O)(=O)N2CCCC2)cc1C | 2 | 1
Cc1ccccc1C(NC(=O)C1CCN(CCc2cccs2)CC1)c1cnccn1 (stereo not given) | 3 | -5
Cc1cc(C)n(-c2cncc(N3CCC(Cc4ccccc4)CC3)n2)n1 | 5 | 3
COc1ccc(CCN(C)C2CCCN(Cc3ccccc3F)C2)cc1OC (stereo not given) | 4 | 0
CC(C)C1=NOC(C(=O)N2CCc3c(cc(-c4ccncc4)c(=O)n3CCN3CCCCC3)C2)C1 (stereo not given) | 20 | 7
COc1ccc(NC(=O)Cn2nc(C)c([N+](=O)[O-])c2C)cc1OC | 7 | -4
CCN(CC)S(=O)(=O)c1ccc(NC(=O)c2ccoc2C)cc1 | 4 | 0
CNC(=O)NC(=O)C(Oc1ccc(Cl)cc1Br)c1ccccc1 (stereo not given) | 9 | 4
COc1ccc(CNC2CCCc3c2cnn3-c2cccc(C)c2C)cc1Cn1cncn1 (stereo not given) | -2 | -8
Cc1ccc(C(CNc2oc(C)nc2C#N)N2CCOCC2)cc1 (stereo not given) | -20 | -15
O=C(NN(c1ccccc1)c1ccccc1)C1CC2CCCC(C1)C2=O (stereo not given) | -4 | -5
Cc1noc(C2CCN(C(=O)CSc3ccc4c(c3)OCCO4)CC2)n1 | 10 | 6
COc1ccc(-c2cc(C)ccc2N2CCOC2=O)c(OC)c1OC | 3 | 1
CCc1nnc2c(=O)n(-c3ccc(OC)c(Cl)c3)ccn12 | 3 | -9
CC(=O)N(c1nc(COC(=O)C2=COCCO2)cs1)c1cccc(C)c1C | 9 | 2
Cc1cc(NC(=O)CNc2cc(F)ccc2C)on1 | 4 | 2
O=C1NCCN(Cc2ccoc2)C1CC(=O)N(Cc1ccccc1)CC1CCC1 (stereo not given) | 1 | -2
C=CCC(C)(C)CN1C[C@H](O)[C@@H](N2CCN(C)CC2)C1 | 4 | 7
Cc1ccsc1C(=O)C1CCCN(Cc2ccc(Sc3nncn3C)o2)C1 (stereo not given) | 0 | -6
Cn1nnnc1SCc1ccc(C(=O)N2C3CCC2CC(Oc2ccc4c(c2)OCO4)C3)cc1 (stereo not given) | 8 | -3
Cc1cccc(Cn2cccc2CN(Cc2ccccc2)Cc2ccc(C(F)(F)F)cc2)c1 | 1 | 6
O=C(Nc1cccc(-c2cccc(F)c2)c1)C1CCN(Cc2ccc(CO)o2)CC1 | 0 | -2
Cc1cc(C)c(C)c(S(=O)(=O)N2CCC(C(=O)NCCCN3CCCCCC3)CC2)c1C | 2 | 3
O=C1NC(O)C(O)N1c1ccccc1 (stereo not given) | 0 | -4
Cc1nc(C(C)NC(=O)N2CC(C)CCC2C)cs1 (stereo not given) | 1 | 1

In the list so far, these contain a Cl atom:
SMILES | NPYLR7 ag | NPYLR7 ag max-min
CCCCCNC(=O)c1cc(-c2ccccc2Cl)nn1-c1cccc([N+](=O)[O-])c1 | 9 | 17
O=C(Cc1ccc(Cl)cc1)N1CCC(n2c(-c3ccccc3)nc3ccc(F)cc32)CC1 | -11 | -11
Cc1ccc(Cc2nsc(N3CCC(CNC(=O)c4cc(Cl)cc(Cl)c4)CC3)n2)cc1 | -1 | 11
Clc1ccc(C2=Nc3ncnn3C(c3ccc(Cl)cc3)C2)cc1 (stereo not given) | 8 | 6
O=[N+]([O-])c1ccc(Cl)c(S(=O)(=O)Nc2ccc(F)cc2Cl)c1 | -1 | -8
CC(C)c1nccn1Cc1cc(C(=O)N(C)Cc2ccccc2Cl)n[nH]1 | 16 | 6
CCC1CCCCN1Cc1c(O)ccc2c(=O)c(-c3ccc(Cl)cc3)coc12 (stereo not given) | 6 | 12
CN(C)CCN(Cc1cccc(F)c1)C(=O)c1ncncc1Cl | 5 | 3
O=C(c1ccc(CSc2nc(Cl)cc(N3CCCCC3)n2)cc1)N1CCN(c2cccc(Cl)c2)CC1 | 24 | 20
COc1ccc(Cl)cc1NC(=O)Cn1ncn2nc(-c3ccccc3)cc2c1=O | -11 | -18
CCCCN(CC(=O)N(CCc1ccc(OC)c(OC)c1)Cc1cccs1)C(=O)C(C)(C)CCl | -3 | -7
O=S(=O)(c1ccc(Cl)c(Cl)c1)N1CCN(Cc2cc(-c3ccccc3)no2)CC1 | 2 | 6
CCc1nc(N2CCN(S(=O)(=O)c3ccc(Cl)c([N+](=O)[O-])c3)CC2)c2c3c(sc2n1)CCCC3 | -10 | -4
CC(=O)Nc1ccc(S(=O)(=O)Oc2ccc(Cl)cc2CN(CCN(C)C)C(=O)C(C)C)cc1 | 16 | 3
O=C(CN1C(=O)CCC1=O)Nc1nnc(-c2cc(Cl)ccc2Cl)o1 | 5 | 2
CNC(=O)NC(=O)C(Oc1ccc(Cl)cc1Br)c1ccccc1 (stereo not given) | 9 | 4
CCc1nnc2c(=O)n(-c3ccc(OC)c(Cl)c3)ccn12 | 3 | -9

Compound activity: PubChem BioAssay, Fisher Drug Discovery Resource Center

These rows are one share of the data, so the mix of outcomes need not match the whole.
